BmaI1 enzyme: BmaI1 acyl-homoserine lactone synthase inhibition – biochemical, fluorescence intensity, with counterscreen (AID 720554); BmaI1 enzyme assay, fluorescence intensity; hits give high values; test concentration not given here; a few actives read low; strong numbers were not always called active; inhibition, %; 12,000 compounds, 0.4% hits;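 active means both replicates within 2 robust z-scores of the inhibited control and a quiet counterscreen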;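 further: 0% = uninhibited enzyme and 100% = inhibited control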
BmaI1 enzyme counterscreen: second read-out of BmaI1 enzyme, no call of its own (marks repeat the call); inhibition, %; measured here: counterscreen; design of the counterscreen not given here;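 first of two replicates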
The depositor's hits bear a star. These rows are one share of the data; rates above refer to the full screens.

SMILES	BmaI1 enzyme	BmaI1 enzyme counterscreen
CCN(CC)CCNC(=O)c1cc(Cl)c(N)cc1OC	-12	-4
O=C(CCNNC(=O)c1ccncc1)NCc1ccccc1	32	-79
OCCN1CCN(CCCN2c3ccccc3Sc3ccc(Cl)cc32)CC1	-36	-30
COc1ccc(C(=O)NCc2ccc(OCCN(C)C)cc2)cc1OC	-18	-10
CN(C)CCOC(C)(c1ccccc1)c1ccccn1 (stereo unspecified)	4	3
CC1COc2c(N3CCN(C)CC3)c(F)cc3c(=O)c(C(=O)O)cn1c23 (stereo unspecified)	-8	-9
CC(=O)Nc1ccc(C(=O)O)cc1	14	21
COc1ccc(/C=C/C(=O)Nc2ccccc2C(=O)O)cc1OC	8	12
Cc1nc2ccccn2c(=O)c1CCN1CCC(C(=O)c2ccc(F)cc2)CC1	1	-2
c1ccc(CC2=NCCN2)cc1	3	19
COc1ccccc1N1CCN(CCCNc2cc(=O)n(C)c(=O)n2C)CC1	8	13
CC(COc1ccccc1)NC(C)C(O)c1ccc(O)cc1 (stereo unspecified)	-32	-34
CC[N+](C)(CC)CCOC(=O)C(O)(c1ccccc1)C1CCCCC1 (stereo unspecified)	13	22
Oc1ccc(/C=C/c2cc(O)cc(O)c2)cc1	13	37
COc1cc2c(cc1OC)C(=O)C(CC1CCN(Cc3ccccc3)CC1)C2 (stereo unspecified)	-2	-4
CCC(C)n1ncn(-c2ccc(N3CCN(c4ccc(OCC5COC(Cn6cncn6)(c6ccc(Cl)cc6Cl)O5)cc4)CC3)cc2)c1=O (stereo unspecified)	4	-2

Reformatted with bars between the fields: entries from further up
SMILES | BmaI1 enzyme | BmaI1 enzyme counterscreen
Cc1nc2ccccn2c(=O)c1CCN1CCC(C(=O)c2ccc(F)cc2)CC1 | 1 | -2
c1ccc(CC2=NCCN2)cc1 | 3 | 19
COc1ccccc1N1CCN(CCCNc2cc(=O)n(C)c(=O)n2C)CC1 | 8 | 13

Single records, as listed above:
Profile of CC(COc1ccccc1)NC(C)C(O)c1ccc(O)cc1 (stereo unspecified) : BmaI1 enzyme: -32; BmaI1 enzyme counterscreen: -34
Profile of COc1ccccc1N1CCN(CCCNc2cc(=O)n(C)c(=O)n2C)CC1 : BmaI1 enzyme: 8; BmaI1 enzyme counterscreen: 13
Profile of CCC(C)n1ncn(-c2ccc(N3CCN(c4ccc(OCC5COC(Cn6cncn6)(c6ccc(Cl)cc6Cl)O5)cc4)CC3)cc2)c1=O (stereo unspecified) : BmaI1 enzyme: 4; BmaI1 enzyme counterscreen: -2
